# Screens deposited in PubChem by National Center for Advancing Translational Sciences (NCATS).
# MARV entry inh = inhibitors of Marburg virus binding or cell entry | Potency, µM (titrated, usually from 37.8 µM), for the others: top-dose activity change, negative = inhibition, most hits filed as inhibitors | Marburg virus pseudotyped entry inhibition, cell reporter; control for the full effect not named in the record; about a third of the inactives were read at about 46 µM | AID 540276 | hit rate 1.8% among 300,000; active = well fitted inhibition curve with a large enough effect; inconclusive = small, poorly fitted or top-dose-only effect, or effect the other way; inactive = flat fitted curve, though single readings scatter; tested in HEK293 cells; about a fifth of its hits are not listed in these tables; further: on the % scale 0 is the no-effect control and ±100 the full control effect; luciferase read-out
# RE007 growth inh = less growth of the S. pombe RE007 Vpr strain. S. pombe RE007 Vpr strain, BacTiter-Glo ATP luminescence, 24 h; control for the full effect not named in the record. Potency, µM (series often up to 92.2 µM), for inactives: at the top dose activity change, negative = less growth. hit rate 0.21% among 360,000. AID 651644; active = well fitted falling curve with a large enough effect; inconclusive = small, poorly fitted or top-dose-only effect; inactive = no such curve, though single readings can be large or run the other way;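 further: on the % scale 0 is the no-effect control and ±100 the full control effect; nearly all actives have a fitted effect of over 50% in size; the assay follows cell death caused by Vpr and the record does not say whether a fall means rescue or toxicity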
#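 Fission yeast strain RE007, carrying one chromosomally integrated HIV-1 vpr copy, was seeded at OD 0.01 in PMG+AL medium with 23 nL pinned compound. After 24 h at 30 °C and 99% humidity, viability was read by BacTiter-Glo luminescence.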
# StopGo reporter = lowers the luciferase signal of an FMDV 2A StopGo reporter; human cells with a luciferase reporter of 2A StopGo recoding; control for the full effect not named in the record; Potency, µM (top dose mostly 57.9 µM), without a hit: top-dose signal change, negative = less light; hit rate 1.2% among 410,000; active = well fitted falling curve with a large enough effect; inconclusive = small, poorly fitted or top-dose-only effect; inactive = no such curve, though single readings can be large or run the other way; tested in HEK293T cells; further: on the % scale 0 is the no-effect control and ±100 the full control effect; nearly all actives have a fitted effect of over 45% in size; luciferase light after 4 h
# Lassa entry inh = Lassa virus entry inhibition; Lassa virus pseudotype entry inhibition, cell reporter; control for the full effect not named in the record; Potency, µM (titrated, usually from 37.9 µM), without a hit: at the highest dose activity change, negative = inhibition, hits mostly inhibitors; hit rate 1.2% among 300,000; AID 540256; active means well fitted inhibition curve with a large enough effect; inconclusive means small, poorly fitted or top-dose-only effect, or effect the other way; inactive means flat fitted curve, though single readings scatter; tested in HEK293 cells; further: on the % scale 0 is the no-effect control and ±100 the full control effect; nearly all actives have a fitted effect of over 50% in size; luciferase read-out
# Cruzain inh Det = cruzain (T. cruzi) inhibition with detergent | purified cruzain, Z-FR-AMC fluorescence, 0.01% Triton | Potency, µM, without a hit: max response, negative = inhibition, most hits filed as inhibitors | hit rate 0.43% among 200,000; active means well fitted curve in the direction sought with a large enough effect; inconclusive means small, poorly fitted or top-dose-only effect, or another doubt; inactive means no such curve, though single readings can be large; an effect the other way counts as inactive or inconclusive;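 further: plate controls were neutral wells for no effect and buffer without enzyme for full effect; nearly all actives have a fitted effect of over 40% in size; top concentration of the series not given in the record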
# Target sequence (P25779 123-467 limits assumed): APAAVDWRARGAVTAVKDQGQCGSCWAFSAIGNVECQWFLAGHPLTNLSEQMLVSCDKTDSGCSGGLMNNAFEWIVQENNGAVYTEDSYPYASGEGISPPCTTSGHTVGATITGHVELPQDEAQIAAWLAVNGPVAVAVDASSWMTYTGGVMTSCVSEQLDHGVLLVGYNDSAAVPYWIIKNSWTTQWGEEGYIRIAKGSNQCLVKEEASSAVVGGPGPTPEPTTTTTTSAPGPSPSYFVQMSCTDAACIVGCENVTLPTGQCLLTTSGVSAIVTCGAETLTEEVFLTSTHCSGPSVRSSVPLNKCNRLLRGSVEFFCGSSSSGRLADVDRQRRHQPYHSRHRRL
#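 Compounds were screened in titration against cruzain (1.5 nM) with 0.01% Triton X-100 to counter colloidal aggregation. Activity was the AMC fluorescence increase over 60 s after adding 2 uM Z-FR-AMC at pH 5.5.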
# SARS PLP yeast = SARS-CoV PLP inhibition in yeast; S. cerevisiae expressing SARS-CoV PLpro, growth rescue; control for the full effect not named in the record; hit rate 0.19% among 330,000; Potency, µM (doses to about 32.9 µM), for the others: top-dose activity, positive = growth rescue; further: 0% is about no effect; nearly all actives have a fitted effect of over 55% in size; growth read by luminescence after 48 h
# Cruzain inh noDet = blocks cruzain activity in detergent-free assay; Potency, µM, for inactives: max response, negative = inhibition, hits mostly inhibitors; purified cruzain, Z-FR-AMC fluorescence, no detergent; hit rate 2.3% among 200,000; P25779; active means well fitted curve in the direction sought with a large enough effect; inconclusive means small, poorly fitted or top-dose-only effect, or another doubt; inactive means no such curve, though single readings can be large; an effect the other way counts as inactive or inconclusive;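 further: plate controls were enzyme without inhibitor for no effect and buffer without enzyme for full effect; nearly all actives have a fitted effect of over 40% in size; top concentration of the series not given in the record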
#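 Detergent-free condition (0.00005% Triton X-100) in acetate buffer pH 5.5 with DTT. 1.5 nM enzyme and compound were pre-mixed 15 min, then 2 uM Z-FR-AMC substrate added; reaction progress from fluorescence change between first and third reads (60 s).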
# NS1 inh = influenza NS1 inhibition | S. cerevisiae slowed by influenza A NS1, growth recovery by OD600 | Potency, µM (top dose mostly 46.1 µM), inactives show top-dose activity, positive = more growth | hit rate 0.4% among 270,000 | AID 2326; further: actives are rising curves; nearly all actives have a fitted effect of over 50% in size
#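 S. cerevisiae expressing influenza A NS1, grown in glucose, washed, then diluted 1:100 into pH 6.0 -URA galactose medium with 23 nl compound. Growth recovery read as OD600; NS1-free strain serves as control.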
# Active calls of the source: *; ? = inconclusive; / = not tested or not shown; & = joins results of further samples; [ ] = dose if it differs, or a comment. Unless noted, the call rests on the fitted dose curve; in most records, active means well fitted rising curve with a large enough effect; inconclusive means small, poorly fitted or top-dose-only effect; inactive means no such curve, though single readings can be large or run the other way. Potency means the concentration at half of the fitted maximal effect.
SMILES,MARV entry inh,RE007 growth inh,StopGo reporter,Lassa entry inh,Cruzain inh Det,SARS PLP yeast,Cruzain inh noDet,NS1 inh
CC(C)(C)NC(=O)CN(C(=O)CCC(=O)Nc1nccs1)c1ccc(F)cc1,/,-8%,-1%,/,/,6%,/,?
COc1ccc(CN(C(=O)c2cccs2)c2ccccc2C(=O)O)cc1,/,7%,-12%,/,/,0%,/,3%
COc1cc(C2C=C(c3cccs3)Nc3ncnn32)cc(OC)c1OC (stereo unspecified),?,-5%,?,-13%,/,-5%,/,/
Cc1ccc(NC(=O)CSc2nc3ccccc3c(=O)[nH]2)cc1[N+](=O)[O-],-14%,22%,-11%,?,/,-2%,/,/
Cc1ccc(N2C(=O)N3[C@H](c4ccc(Br)cc4)[C@@H]4C(=O)N(C(C)(C)C)C(=O)[C@@H]4[C@]3(C)C2=O)cc1,/,-10%,-20%,/,/,3%,/,-1%
COc1ccc(C(=O)NC2=NCCS2)cc1S(=O)(=O)N1CCCCC1C (stereo unspecified),/,-2%,25%,/,/,2%,/,-3%
CCC(C)(C)NC(=O)C(c1ccc(OC)cc1)N(C(=O)CCC(=O)Nc1cc(C)on1)C(C)(C)C (stereo unspecified),2%[46.1 µM],26%,-6%,?,/,3%,/,23%
Cc1cccc(CS(=O)(=O)c2ncc(Cl)c(C(=O)NCc3ccccc3)n2)c1,4.5µM*,-5%,32µM*,?,-3.0%,1%,2%,-3%
O=C(c1ccoc1)N1CCCC(Nc2ccc(F)c(F)c2)C1 (stereo unspecified),-8%[46.1 µM],-20%,19%,-1%[46.1 µM],/,-2%,/,13%
O=C(NCCCn1ccnc1)c1ccc(-c2cccc(Cl)c2Cl)o1,?,-9%,17%,15%,/,-1%,/,/
CC(C)=CCN1CCN(Cc2ccoc2)CC1CCO (stereo unspecified),-3%,8%,-1%,?,/,0%,/,6%
O=S(=O)(Nc1nnc(C2CCCCC2)s1)c1ccc(F)cc1,22%[46.1 µM],4%,1%,6%[46.1 µM],/,-4%,/,-3%
COc1ccc(NC(=O)Cn2c(CCC(=O)O)ccc2-c2ccccc2)cc1,/,7%,6%,/,/,2%,/,?
O=c1c2ccccc2nnn1COc1ccc(Cl)cc1Br,10%[46.1 µM],29%,11%,?,/,0%,/,/
CC(C)C(=O)N1CCN(c2ccccc2NC(=S)NC(=O)Cc2ccccc2)CC1,?,-1%,-23%,?,/,/,/,/
CC(C(=O)N1CCc2ccccc21)N(C)CC(=O)Nc1cccc(F)c1 (stereo unspecified),2%,11%,-10%,1%,/,-1%,/,/
CC(C(=O)N1CCCC1)N1CCN(c2ccccc2O)CC1 (stereo unspecified),-11%,5%,-9%,26%,/,2%,/,5%
CCOC(=O)C(=O)Cc1cccnn1,?,-20%,-8%,-3%,/,/,/,/
COc1ccc(CNC(=O)c2cc3c(=O)[nH]c4ccccc4c3n2C)c(OC)c1,-2%[46.1 µM],/,-17%,0%[46.1 µM],-1.8%,/,?,/
CCOc1ccc(NC(=O)CN(C)CC(=O)Nc2ccc(F)c(F)c2F)cc1OCC,-1%[46.1 µM],-24%,-13%,0%,/,1%,/,/
Cc1ccc(C)c(OCc2ccc(C(=O)N3N=C(C(F)F)CC3(O)C(F)F)o2)c1 (stereo unspecified),-21%,5%,-11%,?,-4.4%,-4%,-13%,-16%
CCOC(=O)N1CCN(C(=O)CCn2c(=S)[nH]c3ccsc3c2=O)CC1,/,18%,16%,-12%,/,-1%,/,/
COc1ccc(CN(CCC(c2ccccc2)c2ccco2)C(=O)c2ccco2)cc1 (stereo unspecified),10µM*,10%,-19%,?,?,2%,?,12%
Cc1ccnn1CCC(=O)N1CCCC(CCC(=O)N2CCN(c3ccccn3)CC2)C1 (stereo unspecified),-27%[46.1 µM],-2%,-18%,-17%[46.1 µM],/,0%,/,4%
Cc1cccc(C(=O)NC(=S)Nc2ccc(S(=O)(=O)N(C)c3ccccc3)cc2)c1,-21%,-13%,-4%,?,1.7%,-6%,?,8%
Cc1cc(C(=O)Nc2nnc(C3CCCCC3)s2)no1,-4%,-16%,41%[activator],2%,9.7%,/,-6%,-114%
CC(C)Cn1c(CCNC(=O)c2ccco2)nc2ccccc21,/,-11%,6%,/,/,-1%,/,-10%
COc1ccc(OC)c(NC(=O)COC(=O)CNC(=O)c2ccc(OC)c(OC)c2)c1,3%,1%[3.69 µM],-13%,4%,-1.3%,-5%,2%,-1%
Cc1c(Cl)cccc1NC(=O)c1noc2c1CCCC2,?,/,35%[activator],10%[46.1 µM],-5.4%,/,-7%,/
COc1cccc(CSc2nc3cc4c(cc3cc2C)OCCO4)c1,?,-11%,-17%,?,-1.5%,-16%,-4%,9%
COc1ccccc1C(=O)Nc1ccnn1C1CCN(C(=O)C2CCOC2)CC1 (stereo unspecified),/,-4%,14%,/,/,4%,/,2%
Cc1ccc(OC[C@H](O)[C@H](C)NC(C)C)c2c1CCC2,16µM*,-20%,-28%&-6%,/,2.5%,/,5%,/
CCc1nnc(SCc2ccc(OC(C)C)cc2)n1N,9%,2%,-3%,8%,2.0%,-4%,-14%,-5%
Cc1ccc(CNC(=O)COC(=O)c2ccc(S(=O)(=O)N3CCCCCC3)cc2)cc1,12%,14%,-1%,27%,/,1%,/,/
O=C(CSCc1ccc(Cl)cc1)N/N=C/c1ccc(OCC(=O)Nc2ccccc2)cc1,-12%,9%,-26%,?,-0.7%,-6%,?,6%
CN(C)CCCNc1nc(N)c([N+](=O)[O-])c(NCc2ccccc2)n1,?,2%,-19%,-16%[46.1 µM],/,1%,/,2%
Cn1c2c(c(=O)n(C)c1=O)C(C(F)(F)F)(C(F)(F)F)N=C(C1CCCCC1)N2,?,-12%,?,?,-4.1%,-6%,11%,18%
CCC(C)NC(=O)C1c2cc(OC)c(OC)cc2C(=O)N(C)C1c1cccs1 (stereo unspecified),2%,29%,36%[activator],1%,6.8%,-3%,7%,11%
Cc1ccc(C(=O)c2ccc([N+](=O)[O-])cc2)cc1,10%,-15%,/,-5%,2.0%,12%,-1%,7%
Cc1ccc(N=Nc2c(N)[nH]n3c(=O)c4c(nc23)CCCC4)cc1,-2%,/,/,/,4.6%,-2%,-3%,6%
CCC(=O)c1c(NC(CC)CO)cc(C)oc1=O (stereo unspecified),-3%[46.1 µM],2%,-5%,5%,/,1%,/,/
CCOC(=O)c1cc(NC(=O)CSc2nnc(CN3CCOCC3)n2C)ccc1Cl,-2%,1%,-11%,?,/,/,/,/
COC(=O)C1(Cc2cc(-c3cccc(Br)c3)no2)CCN(C(=O)OC(C)(C)C)CC1,/,-6%,-28%,/,/,-3%,/,1%
CC(C)(C)c1cc(OC(=O)C2CCCC2)ccc1O,-18%,?,-29%,-10%,/,-10%,/,-56%
O=C(O)CC1Sc2nnc(COc3ccc(Cl)cc3)n2N=C1c1ccccc1 (stereo unspecified),7%[46.1 µM],-8%,24%,6%[46.1 µM],/,4%,/,?
CCc1nc(SCC(=O)N2CCN(C(=O)c3ccco3)CC2)c2c3c(sc2n1)CCCC3,?,3%,?,-11%,-17%,2%,?,-21%
O=C(NCc1c(F)cccc1F)c1cc(COc2c(F)cccc2F)on1,-20%[46.1 µM],15%,25%,-18%[46.1 µM],/,-1%,/,2%
Cc1c(C(=O)N2CCOCC2)sc(NC(=O)c2ccc([N+](=O)[O-])cc2)c1C#N,-13%[46.1 µM],1%,?,/,/,-11%,/,1%
COc1ccccc1NC(=S)NCCSc1ccc(C)cc1,-3%,17%,6%,13%,-17%,-46%,14%,2%
Clc1cccc(CNCCCSc2nnnn2-c2ccccc2)c1,?,/,10%,5%[46.1 µM],-1.4%,/,-10%,/
COc1ccc(C(NC(=O)CC(C)C)NC(=O)CC(C)C)cc1OC,?,-9%,-8%,-7%,7.1%,4%,14%,7%
O=C(Nc1ccc(SC(F)F)cc1)c1ccc(F)cc1,/,-2%,0%,/,/,-1%,/,1%
CC(=O)Oc1cccc(/C=C2\Sc3ccccc3C2=O)c1,-4%[46.1 µM],-20%,11%,-27%[46.1 µM],/,-1%,/,-8%
CCOC(=O)N1CCN(C(=O)CSc2nc(CC)nc3c2c(=O)n(C)c(=O)n3C)CC1,/,-2%,-11%,/,/,1%,/,2%
CC(C)N1C(=O)C(O)(C2COC(C)(C)CC2=O)c2ccccc21 (stereo unspecified),/,-5%,2%,/,/,0%,/,-3%
CNc1ncc(C(=O)c2ccc(F)cc2)s1,?,-3%,28%,9%[46.1 µM],/,-1%,/,1%
COc1ccc(CCNC(=O)CSc2ncc(C(=O)Nc3ccccc3)c(=O)n2C)cc1,?,8%,-24%,-3%,/,0%,/,/
O=C(Cn1nc(-c2ccc(Cl)cc2)ccc1=O)NCC1COCCO1 (stereo unspecified),-9%[46.1 µM],-28%,11%,-3%[46.1 µM],/,2%,/,6%
CCCN(CC(=O)Nc1ccc(Cl)cc1Cl)C(=O)/C=C/c1cc(OC)ccc1OC,?,7%,-14%,-13%,-23%,-18%,-8%,6%
O=c1c2c(nc3c(-c4ccccc4)c[nH]n13)CCC2,-15%,2%,/,-8%,2.6%,3%,-4%,13%

# Additional entries follow:
SMILES,MARV entry inh,RE007 growth inh,StopGo reporter,Lassa entry inh,Cruzain inh Det,SARS PLP yeast,Cruzain inh noDet,NS1 inh
Cc1ccc(N(CC(=O)Nc2ccc(F)c(Cl)c2)S(=O)(=O)c2c(C)noc2C)cc1,?,0%,0%,?,-2.4%,11%,1%,-57%
CCOc1ccc(/C=N/OCC(=O)Nc2ccc(OCc3ccccc3)cc2)cc1OC,?,-26%,7%,-1%,-2.6%,-2%,10%,9%
Cc1ccc(NC(=O)c2cccc(OC(F)F)c2)c(OC(F)F)c1,-21%,/,-1%,10%,-6.5%,1%,-13%,4%
CCOC(=O)c1cn(CC)c2ccc(S(=O)(=O)N3CC(C)CC(C)C3)cc2c1=O (stereo unspecified),0%,-1%,-25%,-73%[14.3 µM],-3.3%,5%,?,1%
CC(Oc1ccc2c3c(c(=O)oc2c1)CCCC3)C(=O)NCCN1CCOCC1 (stereo unspecified),/,1%,-18%,/,/,4%,/,-2%
O=P(O)(CN1CCCCC1)CN1CCCCC1,5%,/,/,/,-2.1%,2%,-5%,-14%

# The order is random. About 4.7% of those tested had a hit in this group.
